MbtI inh – MbtI salicylate synthase inhibition | P9WFX0 | purified MbtI enzyme, fluorescence intensity read-out | inhibition, %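 (about 17 µg/mL by stock and volumes)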 | actives 0.89% (n = 100,000);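 active means above 50% in both replicates, above 80% if mildly self-fluorescent; inactive means the rest, strongly fluorescent compounds included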;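 further: 0% = mean of negative and 100% = mean of positive controls; one replicate is shown; some compounds called inactive have numbers as strong as hits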
MenB inh – Mtb MenB enzyme inhibition. P9WNP5. MenB enzyme assay, absorbance read-out; some hits fall short of the stated cut. inhibition, %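 (about 12 µg/mL by stock and volumes)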. AID 540299. actives 0.43% (n = 100,000);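 active means mean of two replicates above 30%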;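 further: 0% = no compound and 100% = wells with inactive enzyme; the first replicate is given; strong numbers were not always called active; inactives centre near -10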
Target sequence (P9WNP5 whole entry, looked up): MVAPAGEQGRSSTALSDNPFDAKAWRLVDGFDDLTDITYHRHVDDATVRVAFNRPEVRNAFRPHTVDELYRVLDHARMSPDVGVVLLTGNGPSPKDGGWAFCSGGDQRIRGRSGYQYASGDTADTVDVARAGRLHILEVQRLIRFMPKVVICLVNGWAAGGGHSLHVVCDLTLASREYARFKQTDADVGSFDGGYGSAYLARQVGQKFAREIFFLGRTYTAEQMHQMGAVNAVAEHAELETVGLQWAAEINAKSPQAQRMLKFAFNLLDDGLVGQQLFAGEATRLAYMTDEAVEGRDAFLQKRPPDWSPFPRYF
Polio RdRp inh – inhibitors of poliovirus RNA polymerase binding and polymerization | P03300 | actives 0.66% (n = 150,000) | poliovirus polymerase elongation, fluorescence polarization; hits give low values | % elongation, % (compound at 16.7 µg/mL); in the data active means % elongation below about 90%; further: some results filed as inactive read as strong as hits
Target sequence (P03300 1749-2209 limits assumed): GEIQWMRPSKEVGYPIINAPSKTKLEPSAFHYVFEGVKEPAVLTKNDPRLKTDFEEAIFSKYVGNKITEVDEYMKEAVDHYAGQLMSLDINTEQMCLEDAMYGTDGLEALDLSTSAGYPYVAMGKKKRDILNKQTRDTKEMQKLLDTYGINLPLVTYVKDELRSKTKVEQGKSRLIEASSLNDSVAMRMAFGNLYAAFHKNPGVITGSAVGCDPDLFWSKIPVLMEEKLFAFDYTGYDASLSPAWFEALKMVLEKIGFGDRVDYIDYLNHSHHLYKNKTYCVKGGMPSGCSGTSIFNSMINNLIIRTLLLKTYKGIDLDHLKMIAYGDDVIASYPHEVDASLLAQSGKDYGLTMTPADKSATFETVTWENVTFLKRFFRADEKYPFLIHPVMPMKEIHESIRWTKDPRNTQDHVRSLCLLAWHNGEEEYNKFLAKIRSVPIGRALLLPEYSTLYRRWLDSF
Polio RdRp inh intensity – recorded beside Polio RdRp inh, whose call it bears; % elongation; measured here: total intensity read-out; formula for this scale not given here;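 total fluorescence in place of polarization; lower means less elongation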
* hit, by the source's call; i = inactive; / = not tested or not shown; & = joins results of further samples; ! = repeats disagree.

SMILES	MbtI inh	MenB inh	Polio RdRp inh	Polio RdRp inh intensity
O=C(CCn1cnc2ccccc2c1=O)Nc1ccccc1C(F)(F)F	-1	-22	99	102
NS(=O)(=O)c1ccc(N=Cc2c3ccccc3cc3ccccc23)cc1	/	-40	102	114
CN(C)/N=C/C=C1\CCC(P(=S)(N2CCOCC2)N2CCOCC2)=C1N1CCOCC1	4	-60	102	111
OC(CN1CCOCC1)c1ccc2cc[nH]c2c1 (stereo not given)	0	-43	100	103
CCOC(=O)N1CCC(NC(=O)C(C)n2c3ccccc3c3cnn(C)c(=O)c32)CC1 (stereo not given)	1	-22	103	100
COC(=O)C(CO)Nc1ncnc2onc(-c3ccc(F)cc3)c12 (stereo not given)	1	-12	101	101
N#Cc1c(SCC(=O)NCC2CCCO2)nc2c(c1-c1ccco1)CCCC2 (stereo not given)	6	-21	121	126
COc1ccc(-c2cc(-c3ccccc3)nc(N3CCCCC3)n2)cc1OC	62	-72	101	101
CN(C(=O)CN1C(=O)c2ccccc2C1=O)c1ccccc1	2	10	100	102
Cc1nc(Sc2ccccc2)c2oc3ccccc3c2n1	/	-19	103	105
O=C(CSc1nc2cc(Cl)ccc2s1)Nc1ccnn1C1CCCC1	-13	-5	105	108
CCc1ccc(C(=O)Nc2nnn(CC)n2)cc1	/	-9	106	112
CCN(CC)C(=O)CCN1C(=O)c2cc(Cl)c(Cl)cc2C1=O	-13	-25	104	104
COc1ccc(Br)cc1CN(C)Cn1c(NCCO)nc2ccccc21	0	-20	102	106
CC(=O)Nc1nc(COC(=O)c2cc(=O)[nH]c3ccccc23)cs1	-2	-25	100	107
NC(=O)c1ccc[n+]([C@@H]2O[C@H](COP(=O)([O-])OP(=O)(O)OC[C@H]3O[C@@H](n4cnc5c(N)ncnc54)[C@H](OP(=O)(O)O)[C@@H]3O)[C@@H](O)[C@H]2O)c1	-8	9	99	101
CN(C)S(=O)(=O)c1cccc(CSc2nnc(N)s2)c1	9	-26	105	108
CC(c1ccco1)N(C(=O)c1ccc(F)cc1)c1ccccn1 (stereo not given)	-16	/	100	100
O=C(O)/C=C/C(=O)NNc1ncnc2ccccc12	8	-153	105	102
COC(=O)c1ccc2c(=O)n(CCO)c(SCCOc3ccc(Br)cc3)nc2c1	-5	-17	107	107
COc1ccc(CCNC(=O)c2cc3c(=O)n(C)c4ccccc4c3n2C)cc1OC	0	-5	102	104
CCC(C)NC(=O)c1ccc(NC(=O)C2=C(C)OCCS2)cc1 (stereo not given)	5	4	100	103
COC(=O)c1ccc(C(=O)O)s1	-3	-6	100	98
C=CCNc1nc(Nc2ccc(-c3nc4ccccc4o3)cc2)nc(OCC)n1	i	-11	103	105
O=C(NCCN1CCOCC1)c1cc2c(s1)-c1ccccc1OC2	117	1	101	103

Overlap with the part before: 3 entries, followed by the next part.
SMILES	MbtI inh	MenB inh	Polio RdRp inh	Polio RdRp inh intensity
COC(=O)c1ccc(C(=O)O)s1	-3	-6	100	98
C=CCNc1nc(Nc2ccc(-c3nc4ccccc4o3)cc2)nc(OCC)n1	i	-11	103	105
O=C(NCCN1CCOCC1)c1cc2c(s1)-c1ccccc1OC2	117	1	101	103
COc1ccc(-c2noc(CN3CCC(C(=O)Nc4ccccc4)CC3)n2)cc1OC	-6	-8	102	102
COc1ccc(CNC(=O)CN2CCC(=O)CC2)cc1	4	-20	109	136
CC1(C)NC(=O)c2ccccc2O1	2	11	97	102
CCC(NC(=O)c1ccccc1)c1ccccc1 (stereo not given)	-4	3	103	101
Cn1c(SCC(=O)NC2CC2)nnc1-c1cccs1	4	-19	103	102
Cn1nc(C(=O)NCCN2CCC(Cc3ccccc3)CC2)c2c1-c1ccccc1OC2	-5	-6	102	107
CCOC(=O)c1cc(CN)c(C)o1	-6	-22	105	101
CC1CCN(c2cn[nH]c(=O)c2Br)CC1	11	0	97	99
CC1=C(C(=O)OCc2ccccc2)C(/C=C/c2ccccc2)N2C(=O)CCSC2=N1 (stereo not given)	-225	-52	102	109
CCc1cc2c(COC(=O)C3CC(=O)N(Cc4ccco4)C3)cc(=O)oc2cc1O (stereo not given)	-15	-9	95	100
O=C(COc1cc(C(F)(F)F)cc(C(F)(F)F)c1)Nc1ccc2c(c1)OCO2	2	-2	104	108
Nn1c(SCC(=O)N2CCc3ccccc32)nnc1C(F)(F)F	9	-6	99	100
CC(C)(C)C(=O)COC(=O)c1sc2ccccc2c1Cl	-4	/	102	104
Cc1ccc2c(c1)CCCN2C(=O)c1ccc2c(c1)OCO2	-8	2	101	103
Cc1cc(C)nc(SCc2ccccc2C(=O)N2CCN(C(=O)c3ccco3)CC2)n1	-6	-21	109	113
CC(C)(C)NC(=O)Cn1cc(S(=O)(=O)Cc2ccccc2)c2ccccc21	7	6	103	102
COc1ccc(-c2nnc(N)s2)cc1	90	-43	104	100
CC(C)NS(=O)(=O)c1ccc(OCC(=O)NC2CCCCC2)c(Cl)c1	-6	-9	101	102
CCCn1c(=S)[nH]c2ccccc21	86*!	-6&-11	103&100	101&96
CCn1c(=O)c2c(O)cc(=O)oc2c2ccccc21	6	-23	103	99
O=C1CC(c2ccccc2)N=C(SCC(=O)Nc2ccccc2)N1 (stereo not given)	/	-22	95	96
CC1CCCCN1C(=O)CCn1c(=S)oc2ccccc21 (stereo not given)	-2	-2	100	103
Cc1cccc(NC(=O)CSc2nc3c(cc2C#N)C(=O)CC(C)(C)C3)c1	0	-22	103	105
CC1(C(=O)O)CCC(C(=O)N2CCCCC2)C1(C)C (stereo not given)	-6	0	102	103
COc1ccc(S(=O)(=O)NC23CC4CC(C2)CC(C(=O)O)(C4)C3)cc1	13	10	104	92
Further compounds follow.
SMILES	MbtI inh	MenB inh	Polio RdRp inh	Polio RdRp inh intensity
O=C(CCN1C(=O)c2ccccc2S1(=O)=O)Nc1cccc(C(=O)O)c1	-149	11	103	99
N#C/C(=C\c1cc2ccccc2nc1N1CCOCC1)C(=O)Nc1ccc2c(c1)OCCO2	12	-30	103	98
COc1ccccc1N1CCN(C2C3CC4CC(C3)CC2C4)CC1 (stereo not given)	-11	-30	99	101
O=C1NC(=O)/C(=C/C(=O)c2ccccc2)S1	14	7	99	102
CCC(C)(C)C(=O)Nc1ccc(Cl)cc1	-14	-5	100	102
Cc1nc2ccccc2c(=O)n1-c1ccc(C(=O)NC2(C)CCS(=O)(=O)C2)cc1 (stereo not given)	-3	-34	102	92
c1ccc2c(c1)c1ccccc1c1nn3nnnc3nc21	2	5	98	100
COC(=O)CCc1csc(N)n1	2	-32	100	99
Cc1cccc(NC(=O)CSc2cccc[n+]2[O-])c1C	15	-4	98	102
Cc1ccc(NC(=O)c2ccc3noc(-c4ccccc4)c3c2)c(C)c1	1	-31	102	105
Cc1ccc2c(nc3s/c(=C\c4ccc(-c5ccccc5F)o4)c(=O)n32)c1C	/	-23	79	155
Cc1nc2ccccc2n1CCc1nc2c3ccccc3nc(=S)n2[nH]1	36	-38	99	101
NCCS(=O)(=O)N1CCCC1	13	4	101	103
O=C(COC(=O)Cn1nnc(-c2ccccc2)n1)Nc1nc(-c2ccccc2)cs1	6	-41	101	106
CCOc1ccc(NC(=O)c2cc3ccccc3o2)cc1	-7	-14	103	95
O=c1c2ccc(N3CCOCC3)c3cccc(c32)c2nc3ccccc3n12	-14	-10	95	135
Cc1cc(C)cc(Oc2coc3cc(O)ccc3c2=O)c1	-17	1	102	105
O=C(Cc1nc2ccccc2o1)c1cccnc1	-6	/	105	107
O=C(NCC1CCCO1)c1ccc(CS(=O)(=O)c2ccc(Cl)cc2)o1 (stereo not given)	-9	-41	103	95
Nc1cc(=O)[nH]c(SCC(=O)NC2CCCCC2)n1	/	0	105	111
CSC(=Nc1ccc(Cl)cc1)N(C)C	0	13	94	102
CC(NC(N)=O)C(=O)OCc1ccc(Cl)cc1Cl (stereo not given)	9	16	105	96
N#Cc1nc2c(-c3nc4ccccc4s3)c(N)n(CCc3ccccc3)c2nc1C#N	-8	-5	103	103
N[C@@H](Cc1cc(I)c(Oc2ccc(O)c(I)c2)c(I)c1)C(=O)O	-5&-25	-11&3	101&102	104&101
COc1ccc(CN2CCN(C(=O)CN3C(=O)C4C5C=CC(C5)C4C3=O)CC2)c(OC)c1OC (stereo not given)	-8	-16	101	99
Next compounds.
SMILES	MbtI inh	MenB inh	Polio RdRp inh	Polio RdRp inh intensity
Cc1ccc2nc(C)cc(C(=O)OCC(=O)C(C)(C)C)c2c1	/	-5	108	107
COc1ccc(-c2noc(N3CCC(C(=O)NC(C)CCc4ccccc4)CC3)n2)cc1 (stereo not given)	-18	-11	102	102
Cn1c(=O)c2cc(S(=O)(=O)NCCC(=O)NC3CCCC3)ccc2n(C)c1=O	18	-2	98	105
COc1ccc(-c2nn(C)c3sc(C(=O)Nc4cccc(C#N)c4)cc23)cc1OC	3	-31	101	103
COC(=O)c1ccc(COC(=O)c2cc3c(s2)CCCCC3)o1	-8	-21	108	101
C[N+]1([O-])[C@@H]2CC[C@H]1CC(OC(=O)C(CO)c1ccccc1)C2 (stereo not given in full)	1	1	98	102
O=C1CC(NCC2CCCCC2)C(=O)N1c1ccccc1 (stereo not given)	-17	-9	103	100
Nn1c(C(=O)N2CCCC2)nc2ccccc2c1=O	-4	-29	106	101
COc1ccc(CNc2nc(N)n(-c3ccccc3)n2)cc1	12	-17	101	96
COc1ccc2c(c1)N(C)/C(=c1/s/c(=C3/C(=O)N(c4ccccc4)N=C3C)n(C)c1=O)S2	-7	14	102	107
O=C(Nc1ccc(OC(F)F)cc1)NC1CCN(C(=O)OCc2ccccc2)CC1	-6	-16	102	102
Cc1cc(C(=O)CSC(C)c2nc3ccccc3c(=O)[nH]2)c(C)n1C (stereo not given)	23	-30	127	140
COc1ccccc1CNC(=O)C(C)C	-2	/	104	98
O=C(CCCC1=NS(=O)(=O)c2ccccc2N1)Nc1ccccc1	14	0	100	103
COC(=O)C(Sc1nc(C)cc(C)c1C#N)c1ccccc1 (stereo not given)	-9	-49	105	102
CC(=O)NCCOc1nc(N2CCCCC2)nc(N2CCCCC2)n1	-1	-1	104	103
CCOC(=O)CSc1ncnc2sc3c(c12)CCC3	-3	-8	100	103
COc1cc(N(C(=O)Cn2nnc3ccccc32)C(C(=O)NCC2CCCO2)c2ccc(F)cc2)ccc1-n1cnnn1 (stereo not given)	-5	3	104	104
CC1CN(C(=O)COC(=O)c2ccc(S(=O)(=O)N3CCCC3)cc2)CC(C)O1 (stereo not given)	-7	0	104	110
CCn1c(-n2nc(C)cc2NC(=O)c2ccccc2)nc2ccccc21	-5	/	99	103
CC(C)=CC1C(C(=O)NN)C1(C)C (stereo not given)	-7	-18	104	109
CS(=O)(=O)CCC1NC(=O)NC1=O (stereo not given)	-9	-39	/	/
O=C1c2ccccc2-c2oc(=O)c3ccccc3c21	-13	-7	104	101
Cc1cc(C)nc(NC(=S)Nc2ccccc2)n1	-8	-12	101	111
S=C(Nc1cccnc1)NC1CCCCCCC1	/	-11	108	99

Whole records, looked up by structure. Screens in order: MbtI inh	MenB inh	Polio RdRp inh	Polio RdRp inh intensity
O=C(COC(=O)Cn1nnc(-c2ccccc2)n1)Nc1nc(-c2ccccc2)cs1 as listed: 6	-41	101	106
CC(C)(C)C(=O)COC(=O)c1sc2ccccc2c1Cl as listed: -4	/	102	104

Back to the main list with the 6 entries that preceded the break.
SMILES	MbtI inh	MenB inh	Polio RdRp inh	Polio RdRp inh intensity
CCn1c(-n2nc(C)cc2NC(=O)c2ccccc2)nc2ccccc21	-5	/	99	103
CC(C)=CC1C(C(=O)NN)C1(C)C (stereo not given)	-7	-18	104	109
CS(=O)(=O)CCC1NC(=O)NC1=O (stereo not given)	-9	-39	/	/
O=C1c2ccccc2-c2oc(=O)c3ccccc3c21	-13	-7	104	101
Cc1cc(C)nc(NC(=S)Nc2ccccc2)n1	-8	-12	101	111
S=C(Nc1cccnc1)NC1CCCCCCC1	/	-11	108	99
C=CCN(c1ccccc1)S(=O)(=O)c1ccc2c(c1)OC(C)CN2C(C)=O (stereo not given)	-10	-26	106	109
CC(=O)NC(C)(C)C(=O)N1CCCC1C(=O)NC(C)(C)C(=O)NC(C)C(=O)NC(C)(C)C(=O)NC(C)C(=O)NC(CCC(N)=O)C(=O)NC(C)(C)C(=O)NC(C(=O)NC(C)(C)C(=O)NCC(=O)NC(CC(C)C)C(=O)NC(C)(C)C(=O)N1CCCC1C(=O)NC(C(=O)NC(C)(C)C(=O)NC(C)(C)C(=O)NC(CCC(=O)O)C(=O)NC(CCC(N)=O)C(=O)NC(CO)Cc1ccccc1)C(C)C)C(C)C (stereo not given)	/	-16	99	102
COc1ccc(CCNC(=O)CN2CCC(C)CC2)cc1	-4	-19	105	106
O=C(Nc1ccc(-c2n[nH]c(=S)o2)cc1)c1ccccc1Br	8	9	101	99
CC1=NN(C(=O)c2ccccc2)C(O)(C(C)(C)C)C1 (stereo not given)	-8	-7	100	98
[O-][n+]1onc2c1CCC1N(O)C(c3ccccc3)CC21O (stereo not given)	1	29	101	103
CCCCn1c(=N)n(CC(=O)c2ccc(Cl)c(Cl)c2)c2ccccc21	1	-24	103	104
O=C(NCc1ccccc1)c1ccc2c(=O)n(CCC3=CCCCC3)c(=O)[nH]c2c1	9	-4	104	104
CC(C)CNC(=O)c1cccc(NC(=O)c2ccco2)c1	/	0	101	104
O=C(CN1C(=O)CSc2ccccc21)NC1CCCCCCC1	3	-22	99	101
Cc1cc2ncn(CCOc3ccccc3C)c2cc1C	8	-37	103	103
